HNF4A DNA FP – change in binding of human HNF4A to DNA, primary screen, biochemical, fluorescence polarization, FITC-DNA; actives 0.3% (n = 360,000); 1 h; activity change, % at 10 µM; in the data active means activity change above about 30%, passing the limit was not always enough;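 further: controls were the assay level and a saturating level of protein; the project sought stronger binding though the title names inhibitors; some compounds called inactive have numbers as strong as hits; positive values seem to mean higher polarization but the record does not say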
UCH37 DUB inh – inhibitors of human UCH37 deubiquitinase, primary screen, biochemical, Ub-AMC cleavage, fluorescence; Ubiquitin carboxyl-terminal hydrolase isozyme L5 (Homo sapiens), Q9Y5K5; purified proteasome/UCH37; inhibition, % (concentration not given with the values); actives 0.33% (n = 330,000); AID 588478, 2011;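 active means mean of two replicates above 20%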;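 further: 0% = compound-free wells with enzyme and 100% = wells lacking proteasome; stock transfer was 100 nL into about 20 µL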
Target sequence (Q9Y5K5 whole entry, looked up): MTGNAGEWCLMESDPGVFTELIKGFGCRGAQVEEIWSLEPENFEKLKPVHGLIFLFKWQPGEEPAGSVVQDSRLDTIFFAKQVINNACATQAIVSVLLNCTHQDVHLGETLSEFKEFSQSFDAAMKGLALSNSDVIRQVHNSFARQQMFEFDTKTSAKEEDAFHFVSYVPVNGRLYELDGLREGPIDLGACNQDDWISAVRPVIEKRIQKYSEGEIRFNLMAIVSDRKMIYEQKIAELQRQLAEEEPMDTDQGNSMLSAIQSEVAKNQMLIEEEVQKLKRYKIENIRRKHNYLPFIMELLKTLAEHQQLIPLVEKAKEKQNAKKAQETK
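Material: Human UCH37 enzyme supplied as purified proteasome complex | Schedule: 30 min compound-proteasome preincubation then 25 min substrate reaction, room temperature | Detection: AMC fluorescence from Ub-AMC cleavage, excitation 355 nm, emission 460 nm | Benchmarks: Wells without proteasome as full block, compound-free enzyme plus substrate as uninhibited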
FGF22 binding – binders of human FGF22 protein, primary screen, FGF22 synaptogenesis inhibitor project, biophysical, thermal shift, single point. Fibroblast growth factor 22 (Homo sapiens), Q9HCT0. recombinant FGF22 thermal shift, SYPRO orange fluorescence; percent of sucrose octasulfate shift, DMSO zero. calls only at 9.99 µM. actives 1.5% (n = 340,000). AID 651658, 2012;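 active means melting point raised past a set limit in the mean and every replicate; inconclusive means no clear call; three in four hits are not shown here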
Vif A3G – inhibitors of Vif binding to APOBEC3G peptide, primary screen, biochemical, TR-FRET, GST-Vif 1-94, biotin-A3G peptide, dose response retest (AID 1117319) | Virion infectivity factor (Human immunodeficiency virus type 1 group M subtype B (isolate … | TR-FRET GST-Vif / biotin-A3G peptide binding; higher % means a stronger effect; test concentration not given here; strong numbers were not always called active | one-dose inhibition, %; IC50 in µM for titrated hits | actives 0.57% (n = 260,000);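 active means above the screen mean plus three standard deviations and confirmed in dose response; inconclusive means results disagree or hit not tested in dose response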;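 further: Vif residues 1-94 fused to GST binding biotinylated APOBEC3G peptide 110-148; 0% = full assay without inhibitor and 100% = GST in place of GST-Vif; retest series ran down from 100 µM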
RanGTP-Impb inh – inhibitors of RanGTP-importin-beta interaction, primary screen, biochemical, FRET, CFP-Ran, YFP-importin-beta, homogeneous; Ran GTPase (GTP-bound) - importin-beta complex; cell-free CFP-Ran/YFP-importin-beta FRET ratio; inhibition, % (concentration not given with the values); actives 1.1% (n = 300,000); AID 2216, 2009;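 active means most replicates above 15%; inconclusive means exactly half above 15%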;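 further: 0% = DMSO wells and 100% = Ran loaded with GDP instead of GTP; wells of about 40 µL received 100 nL stock; the first replicate is given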
AF4-AF9 inh – inhibitors of AF4 peptide binding to AF9, primary screen, biochemical, AlphaScreen, biotin-AF4 peptide, FLAG-AF9, single point. inhibition, % at 10 µM. actives 0.47% (n = 350,000);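 active means every replicate reaching a set inhibition limit, whatever the replicate mean, cut at about 25% in these data; inconclusive means mean inhibition reaches that limit but some replicates miss it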;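 further: 0% = plate neutral control median and 100% = total signal loss; the record names both 10 and 1 µM as test concentration; the first replicate is given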
Target sequence (P42568 whole entry, looked up): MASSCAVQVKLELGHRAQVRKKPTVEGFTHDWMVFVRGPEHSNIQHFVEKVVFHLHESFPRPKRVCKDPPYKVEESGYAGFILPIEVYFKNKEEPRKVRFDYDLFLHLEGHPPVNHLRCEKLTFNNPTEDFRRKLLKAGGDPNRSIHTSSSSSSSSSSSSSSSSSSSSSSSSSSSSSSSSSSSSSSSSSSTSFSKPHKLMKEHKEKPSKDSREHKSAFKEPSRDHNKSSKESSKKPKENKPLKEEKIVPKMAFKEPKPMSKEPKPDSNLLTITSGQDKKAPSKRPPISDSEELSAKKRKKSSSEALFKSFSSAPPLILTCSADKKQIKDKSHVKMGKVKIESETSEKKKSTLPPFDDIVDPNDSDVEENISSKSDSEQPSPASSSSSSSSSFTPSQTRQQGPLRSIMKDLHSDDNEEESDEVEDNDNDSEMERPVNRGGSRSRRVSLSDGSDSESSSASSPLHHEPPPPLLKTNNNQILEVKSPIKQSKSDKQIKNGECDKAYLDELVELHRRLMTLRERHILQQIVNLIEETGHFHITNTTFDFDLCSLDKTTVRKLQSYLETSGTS
E coli growth – E. coli growth inhibition, primary screen, OD600; Escherichia coli growth, 23 h; stronger effect = lower value; OD600 absorbance (no concentration beside the values); actives 0.21% (n = 330,000);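 active means OD600 absorbance below the run mean of sample wells minus 3.6 SD, in any replicate, cut at about 0.56 in these data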;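 further: stock transfer was 300 nL into about 60 µL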
* hit, by the source's call; i = inactive; ? = inconclusive; . = no result given; & = joins results of further samples.

SMILES	RanGTP-Impb inh	E coli growth	AF4-AF9 inh	FGF22 binding	UCH37 DUB inh	HNF4A DNA FP	Vif A3G
CN(C1CCCCC1)S(=O)(=O)c1ccc(-n2cnnn2)cc1	?	0.72	.	.	1.0	3.5	20%
O=C(NCc1ccccc1)c1cc(C2CCCN(C(=O)C3CC3)C2)on1 (stereo unspecified)	.	.	-0.8	i	.	-0.2	.
CC(C)CC(=O)Nc1ccc2c(c1)OCO2	-1.8	0.69	-0.2	i	7.3	3.7	-3%
CN(C)/C=C1\N=C(c2ccccc2)OC1=O	-2.0	0.69	0.5	i	20*	-1.6	-8%
O=c1[nH]c(/C=C/c2ccccn2)nc2ccccc12	0.0	0.61	3.6	i	-8.7	3.7	-13%
COc1ccccc1N(C)S(=O)(=O)c1ccc(C(=O)OCC(=O)NCc2cccs2)cc1	2.9	0.67	2.9	i	5.9	3.4	2%
C#CCOCCOCCOCCNc1nc(N2CCN(C(=O)[C@H](CCCCN)n3cc([C@@H](N)C(C)CC)nn3)CC2)nc(N2CCN(C(=O)[C@H](CCCCN)n3cc([C@@H](N)CC(C)C)nn3)CC2)n1 (stereo partly specified)	2.6	.	56*	i	1.0	72*	-8%
CC(C)(C)c1ccc(C(O)c2ncc(-c3ccc4ccccc4c3)[nH]2)cc1 (stereo unspecified)	.	.	-0.2	i	.	4.7	.
O=S(OCCN1CCOCC1)C(c1ccccc1)c1ccccc1 (stereo unspecified)	.	0.69	0.5	i	4.6	2.2	-10%
CC(C)CN=CC1=C(O)c2ccccc2C1=O	2.2	0.66	-0.3	i	8.0	-1.2	8%
CCOc1ccc(-n2ccnc2SCC(=O)NCc2ccc3c(c2)OCO3)cc1	0.9	0.7	.	.	1.3	-2.2	9%
Oc1ccc(-c2nc3ccc4ccccc4c3c3c2CCC3)cc1O	7.4	0.68	.	.	-14	0.8	.
COc1nc(N2CCCC2)nc(-n2nnc(C(C)=O)c2C)n1	-0.4	0.68	-0.5	i	1.1	1.2	2%
COc1ccc(/C=N/NC(=O)c2ccccc2OC)cc1COc1ccc(C)cc1	3.7	.	-17	i	.	-2.0	.
COc1ccc(-c2nc(N)n(C(=O)c3cccs3)n2)cc1	1.1	0.67	-2.3	i	-7.9	1.0	10%
NC(=O)C1CCN(c2ccc([N+](=O)[O-])cc2Cl)CC1	-1.5	0.69	-2.0	i	5.0	2.1	12%
CN1CCN(S(=O)(=O)c2cccc(C(=O)Nc3sc4c(c3-c3nc5ccccc5[nH]3)CCCC4)c2)CC1	-1.7	.	5.5	i	.	0.1	-2%
CCCCNC(=O)NCc1cnn(C)c1C	-1.4	0.65	.	.	-0.2	-1.9	1%
CC(=O)c1ccc(NC(=O)c2ccc3snnc3c2)cc1	0.2	0.74	0.4	i	1.5	0.8	.
CCOc1cc(C2C3=C(CC(C)(C)CC3=O)N(CCCOC)C3=C2C(=O)CC(C)(C)C3)ccc1OC	6.8	0.68	29*	i	4.2	-1.6	.
COc1ccc(C(C)=O)cc1COC(=O)CCNS(=O)(=O)c1ccc(C)c(C)c1	5.5	0.65	-13	i	-0.2	1.6	4%
CCOC(=O)c1ccccc1NC(=O)CSc1nnc(COc2ccccc2C)n1C	1.3	0.71	.	.	3.3	-4.2	-9%
CC(=O)C1(O)C(C)CC2C3CC(F)C4(O)CC(O)CCC4(C)C3CCC21C (stereo unspecified)	.	0.67	-3.4	i	3.8	-3.0	-11%
CC(C)Cn1c(N)c(C(=O)COC(=O)c2cnccn2)c(=O)n(C)c1=O	3.8	0.62	-1.6	i	-1.3	2.5	-6%
COc1ccc(CC(=O)Nc2ccc(S(=O)(=O)N(C)C3CCN(C)CC3)cc2)cc1	.	0.66	2.7	i	1.0	-2.4	-7%

Next structures:
SMILES	RanGTP-Impb inh	E coli growth	AF4-AF9 inh	FGF22 binding	UCH37 DUB inh	HNF4A DNA FP	Vif A3G
COc1ccc([N+](=O)[O-])cc1NS(=O)(=O)c1ccc(C(=O)N2CCCC2)cc1	.	0.68	-0.1	i	4.6	1.2	1%
COC(=O)c1cc(Sc2c(Cl)cccc2Cl)ccn1	3.1	0.7	0.7	i	6.7	2.9	-7%
CCCN(CCC)S(=O)(=O)c1nc2nc(C)cc(C)n2n1	-2.3	0.71	-34	i	4.7	3.1	.
O=C(O)C1Cc2ccccc2-c2ccccc2C1	0.9	0.68	0.2	i	1.6	-5.7	-4%
Nc1nonc1-n1nnc(C(=O)N/N=C/c2ccco2)c1CSc1ccccc1	2.4	.	-3.6	i	.	3.4	.
CCNC(=O)NC(=O)C(C)OC(=O)CCCSc1nc2ccccc2s1 (stereo unspecified)	-2.9	0.7	-8.6	i	4.0	2.6	6%
Cc1ccc(Cn2ccsc2=NC(=O)COC(=O)c2ccc(O)cc2O)cc1	-1.8	0.71	-0.9	i	1.1	-2.1	.
CCC(C)Sc1cccc(-c2nc3cc(C)ccn3c2NCc2ccccc2)c1 (stereo unspecified)	4.3	0.72	9.3&10	i	-110	5.2&0.7	.
COC(=O)c1cccc(NC(=O)c2ccc3c(c2)C(=O)N(Cc2cccnc2)C3=O)c1C	-8.3	0.73	-3.5	i	-1.6	0.0	1%
OCc1nc2ccccc2n1CCCOc1ccc(Br)cc1	2.2	0.66	.	.	0.3	0.3	-1%
COc1ccc(/C=C/C(=O)OCC(=O)Nc2c(C)cccc2C)cc1	1.6	0.66	4.6	i	-4.3	0.9	-5%
COC(=O)c1cn(Cc2ccc(C(F)(F)F)cc2)cc(F)c1=O	-1.8	0.59	-17	i	2.0	-1.1	2%
Cc1ccc2nc(-c3ccccc3)c(CN3CCOCC3)n2c1	-3.7	0.65	-0.7	i	-0.5	-1.1	-5%
O=C(CSc1nnc(COc2ccccc2)n1Cc1ccco1)Nc1ccc2c(c1)OCCO2	-0.7	0.72	-39	i	3.2	-3.0	-6%&-12%
Cc1csc(Sc2nc3c(c(=O)[nH]c(=O)n3C)n2Cc2ccccc2Cl)n1	-3.9	0.69	.	.	2.7	5.9	-4%
O=C1CC(N2CCC(O)(c3ccc(Br)cc3)CC2)C(=O)N1c1ccc(Cl)cc1 (stereo unspecified)	?	0.68	0.4	i	-0.9	-0.5	29%
COc1cc(Br)c(C(=O)c2nccc3cc(OC)c(OC)cc23)cc1OC	-0.9	.	-7.7	i	.	-7.0	.
CN(C(=O)CN1C(=O)/C(=C/c2ccc(F)cc2)SC1=S)C1CCS(=O)(=O)C1 (stereo unspecified)	-3.2	0.7	-23	i	11	2.2	.
CC(=O)Nc1cc2c(cc1NC(=O)Cn1nc(-c3ccc4c(c3)OCCO4)ccc1=O)OCCO2	-1.5	0.71	.	.	3.2	0.9	-9%
C[N+]1(CC2COC3(CCCCC3)O2)CCCC1 (stereo unspecified)	-0.9	0.67	-7.1	i	4.6	1.8	1%
CCOC(=O)C1CCN(Cc2cc(C(C)(C)C)c(O)c(C(C)(C)C)c2)CC1	-3.6	0.65	1.9	i	0.3	-2.2	2%
CC1(C)C(=O)OC(c2c(F)c(F)c(F)c(F)c2F)C2(CCCCC2)C1=O (stereo unspecified)	3.7	0.72	.	.	1.6	2.5	5%
CCc1cc(-c2nnn(CCC3COCCO3)c2CC)cc(CC)c1-c1cn(Cc2ccccc2)nn1 (stereo unspecified)	.	.	-0.6	i	.	1.0	-5%
CCc1ccc(-c2cc(C)no2)cc1S(=O)(=O)N1CCCN(Cc2ccc(F)cc2)C1	3.4	0.68	-0.8	i	5.8	-2.5	.
O=C(NCc1cccs1)c1noc2c1CCCCC2	3.7	0.62	.	.	0.0	-2.5	17%

3 compounds from above, sorted by the number in RanGTP-Impb inh, smallest number first:
compound	RanGTP-Impb inh	AF4-AF9 inh	UCH37 DUB inh	HNF4A DNA FP	Vif A3G
COc1cc(Br)c(C(=O)c2nccc3cc(OC)c(OC)cc23)cc1OC	-0.9	-7.7	.	-7.0	.
O=C(O)C1Cc2ccccc2-c2ccccc2C1	0.9	0.2	1.6	-5.7	-4%
O=C(NCc1cccs1)c1noc2c1CCCCC2	3.7	.	0.0	-2.5	17%

Entries of single compounds as entered above. Values in the order: RanGTP-Impb inh | E coli growth | AF4-AF9 inh | FGF22 binding | UCH37 DUB inh | HNF4A DNA FP | Vif A3G
Cc1ccc2nc(-c3ccccc3)c(CN3CCOCC3)n2c1 in the list: -3.7 | 0.65 | -0.7 | i | -0.5 | -1.1 | -5%
COc1ccc([N+](=O)[O-])cc1NS(=O)(=O)c1ccc(C(=O)N2CCCC2)cc1 in the list: . | 0.68 | -0.1 | i | 4.6 | 1.2 | 1%

Continued.
SMILES	RanGTP-Impb inh	E coli growth	AF4-AF9 inh	FGF22 binding	UCH37 DUB inh	HNF4A DNA FP	Vif A3G
COc1cccc(-c2nc(-c3ccc(C(=O)O)cc3)no2)c1	-1.4	0.68	-11	i	0.2	0.7	.
CCc1nnc(NC2=NCCC2)s1	-0.1	0.74	.	.	2.2	-1.1	-4%
CC(C)(Oc1ccc(Cl)cc1)C(=O)NC1CCSC1=O (stereo unspecified)	1.4	0.7	-12	i	2.1	-5.0	11%
COc1ccc(/C=N/Nc2nc(Nc3ccccc3)nc(N3CCCCC3)n2)cc1OC	-3.1	.	.	.	.	-0.2	?
Cc1ccc(C(C)C)c(OCC(=O)NCC(c2cccs2)N2CCOCC2)c1 (stereo unspecified)	2.0	0.67	-0.6	i	3.7	0.8	-4%
CC1=C(C(=O)Nc2ccccn2)C(c2ccc(Cl)cc2Cl)NC(=S)N1 (stereo unspecified)	.	0.68	-1.1	i	3.7	0.3	11%
Cc1cccnc1NC(=O)c1ccc(NS(=O)(=O)/C=C/c2ccccc2)cc1	0.4	0.7	-2.5	i	3.6	-0.6	5%
Cc1cc2c(SCC(=O)NC3CCCC3)ncnc2s1	0.3	0.69	-1.0	i	1.5	2.5	.
COc1ccc(/C=C/C(=O)NNC(=O)c2cc(C)oc2C)cc1	-1.5	0.67	-1.0	i	2.0	1.9	2%
COc1ccc(OC)c(NC(=O)NNS(=O)(=O)c2ccc(C)cc2C)c1	-1.3	0.7	-9.3	i	5.5	-5.4	.
CCCS(=O)(=O)N1CCC(C(=O)NC2CCC(C)CC2)CC1 (stereo unspecified)	1.9	0.74	.	.	0.8	-0.3	23%

This is a subset; count on the stated rates, not on these rows.
